# Screening results as filed in PubChem.
# RecA splice inh: Mtb RecA intein splicing inhibitors, primary screen, biochemical, fluorescence, HTS | Protein RecA (Mycobacterium tuberculosis (strain ATCC 25618 / H37Rv)), P9WHJ3 | cell-free RecA intein splicing | inhibition, %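 (about 9 µM by stock and volumes)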 | 290,000 tested, 0.75% active | AID 2221, 2009; in the data active = inhibition above about 30%; inconclusive = no clear call, values can overlap the other calls;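 also: 0% = vehicle wells and 100% = reference inhibitor control wells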
# Target sequence (P9WHJ3 whole entry, looked up, canonical isoform): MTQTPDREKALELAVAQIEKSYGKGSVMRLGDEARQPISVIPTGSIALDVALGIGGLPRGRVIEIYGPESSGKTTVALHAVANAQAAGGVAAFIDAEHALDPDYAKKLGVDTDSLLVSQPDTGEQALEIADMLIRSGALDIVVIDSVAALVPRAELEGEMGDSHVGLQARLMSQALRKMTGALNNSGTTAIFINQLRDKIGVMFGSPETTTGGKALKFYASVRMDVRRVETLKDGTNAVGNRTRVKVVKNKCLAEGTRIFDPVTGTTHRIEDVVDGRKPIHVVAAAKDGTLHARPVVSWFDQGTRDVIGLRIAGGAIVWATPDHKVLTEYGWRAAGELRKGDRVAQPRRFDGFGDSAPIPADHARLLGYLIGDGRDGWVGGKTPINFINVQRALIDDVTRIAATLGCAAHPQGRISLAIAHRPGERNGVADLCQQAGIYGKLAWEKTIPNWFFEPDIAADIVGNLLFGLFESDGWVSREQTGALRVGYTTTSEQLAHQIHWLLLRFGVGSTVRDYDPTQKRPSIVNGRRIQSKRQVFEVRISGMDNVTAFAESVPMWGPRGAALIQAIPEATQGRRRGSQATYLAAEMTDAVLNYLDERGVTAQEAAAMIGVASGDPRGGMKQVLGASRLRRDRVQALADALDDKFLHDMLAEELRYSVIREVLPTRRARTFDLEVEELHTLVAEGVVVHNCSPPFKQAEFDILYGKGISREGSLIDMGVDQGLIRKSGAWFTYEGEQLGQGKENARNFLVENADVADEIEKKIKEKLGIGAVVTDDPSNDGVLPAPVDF
# Arbovirus inh: antivirals against arbovirus infection, primary screen, cell-based, full library, 10K replicate subset | 200,000 tested, 0.37% active | inhibition, % at 10 µM | AID 1251, 2008 | arbovirus infection cell-based antiviral screen;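 active = inhibition from about 30%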;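 also: bluetongue infection of BSR cells; cell survival read as ATP light after 72 h; 0% = infected wells without compound and 100% = uninfected wells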
# YopH inh: YopH tyrosine phosphatase inhibitors, primary screen, biochemical, fluorescence Ex485/Em525; AID 898, 2007; inhibition, %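 (about 10 µM by stock and volumes)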; YopH tyrosine phosphatase [Yersinia enterocolitica]; 140,000 tested, 0.16% active;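 active = inhibition of 50% or more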;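 also: controls were vehicle for no effect and minimum signal wells for full effect; inactives centre near -20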
# Mtb bLac sens: beta-lactam sensitization of Mtb H37Rv, H37Rv; AID 434955, 2010; M. tuberculosis H37Rv growth with meropenem, percent inhibition; hits of this screen are not shown here; 330,000 tested, 0.27% active; inhibition, % at 25 µM;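 active = about 74% or more and at least 40 points above the plate without the antibiotic, then above 30% in a dose series; inconclusive = first-round hits that could not be retested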;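 also: growth measured after seven days incubation then overnight dye step; 0% = bacteria only wells and 100% = bacteria with antibiotic; twin plates without the antibiotic show which effects depend on it; some results filed as inactive read as strong as hits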
# Mtb growth: M. tuberculosis H37Rv growth inhibitors, H37Rv strain (AID 1626). M. tuberculosis H37Rv growth inhibition; higher % means a stronger effect. inhibition, % at 10 µM; hits with a dose series show IC50 in µM. 220,000 tested, 0.95% active;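 active = confirmed in a dose series; inconclusive = inhibition above 80% but not taken into the dose series; inactive = below 80% or under 30% at every dose of the series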;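 also: bacteria incubated seven days before Alamar blue readout; 0% = bacteria only wells and 100% = bacteria with antibiotic wells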
# Arbovirus inh repeat: recorded beside Arbovirus inh, whose call it bears; inhibition, %; measured here: 10K subset replicate screen; many hits read low in the repeat;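 first of two repeat runs on a subset; 0% = infected and 100% = uninfected wells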
# * marks the source's active call; other numbers are inactive results; ? = inconclusive; / = not tested or not shown. A portion of the library; count on the stated rates, not on these rows.
SMILES,RecA splice inh,Arbovirus inh,YopH inh,Mtb bLac sens,Mtb growth,others
CCOC(=O)C1CCN(CC(O)COC(CC)c2ccccc2)CC1 (stereo not drawn),-2.3,/,/,-2,/,
CCN(Cc1ccccc1)S(=O)(=O)c1ccc(S(=O)(=O)N2CCN(CCC#N)CC2)cc1,-0.2,3,-11,3,3%,Arbovirus inh repeat=0
O=C(OC1CSc2nc3ccccc3n2C1)c1ccco1 (stereo not drawn),-0.1,5,-19,-7,-12%,
Cc1ccc(-c2n[nH]c(=O)c3ccccc23)cc1S(=O)(=O)NCCN1CCOCC1,-1.8,-3,1,-13,-4%,
COc1ccc(CNC(=O)COC(=O)CCc2c[nH]c3ccccc23)cc1,-4.5,-1,/,35,5%,
COc1ccc(S(=O)(=O)c2c(O)c3ccc(C(=O)Nc4ccccc4F)cc3[nH]c2=O)cc1,-4.5,/,/,3,/,
COc1ccccc1NC(=O)Nc1ccc2c(c1)OCCO2,0.9,7,-49,-3,-3%,
CC(=O)Nc1cc(NC(C)=O)c(CC(C)C)s1,0.6,6,-26,-5,54%,Arbovirus inh repeat=5
Cc1cccc(N2CCN(c3ccc(C(N)=O)cc3[N+](=O)[O-])CC2)c1C,0.0,-3,/,-5,0%,
O=C(CN1C(=O)c2ccccc2C1=O)Nc1nc(-c2cccc([N+](=O)[O-])c2)cs1,4.9,8,-61,/,/,
CSCCC(NC(=O)C12CC3CC(CC(C3)C1)C2)C(=O)OCC(=O)c1ccc(C)cc1 (stereo not drawn),/,5,-21,-1,-3%,
c1ccc(-n2ncc3c(NCC4CCCO4)ncnc32)cc1 (stereo not drawn),-0.7,-16,-36,-1,2%,

# The last 3 compounds of the part above come first, to join the parts:
SMILES,RecA splice inh,Arbovirus inh,YopH inh,Mtb bLac sens,Mtb growth,others
O=C(CN1C(=O)c2ccccc2C1=O)Nc1nc(-c2cccc([N+](=O)[O-])c2)cs1,4.9,8,-61,/,/,
CSCCC(NC(=O)C12CC3CC(CC(C3)C1)C2)C(=O)OCC(=O)c1ccc(C)cc1 (stereo not drawn),/,5,-21,-1,-3%,
c1ccc(-n2ncc3c(NCC4CCCO4)ncnc32)cc1 (stereo not drawn),-0.7,-16,-36,-1,2%,
COc1ccc(/C=C/C(=O)OCC(=O)Nc2ccc(S(N)(=O)=O)cc2)cc1OC,1.0,-1,/,3,-1%,
COc1ccc(NC(=O)CCOc2ccccc2)cc1,2.4,10,8,70,70%,
Cc1[nH]c2ccccc2c1/C=N/NC(=O)c1cc(-c2ccccc2)n[nH]1,2.1,/,/,13,5%,
O=C(COc1ccccc1Cl)NCCNC(=O)c1cccnc1,-2.8,/,/,4,/,
Cc1cc(C)c(NC(=O)CS(=O)CC(=O)Nc2ccc(N3CCOCC3)cc2)c(C)c1 (stereo not drawn),0.1,/,/,-2,/,
CCOC(=O)Nc1sc(C)nc1-c1ccccc1,-0.3,1,-14,-2,2%,
Cc1nn(C)cc1CNC(=O)c1ccc(F)cc1,-0.5,-8,-28,0,7%,
CC(=O)c1cc(Cl)ccc1OCc1cccc(S(=O)(=O)N2CCOCC2)c1,2.6,/,/,-11,/,
COc1ccccc1-n1c(CNC(=O)c2ccco2)n[nH]c1=S,-1.5,/,/,-4,/,
Cc1ccc(S(=O)(=O)N2CCN(C(=O)COC(=O)CSc3ccccc3)CC2)c(C)c1,1.1,/,/,2,/,
Cc1ccc(NC(=O)COC(=O)c2ccc(F)cc2Cl)c(Br)c1,4.1,9,/,72,55%,
O=C(N/N=C/c1ccncc1)NC12CC3CC(CC(C3)C1)C2,-0.1,/,/,65,6%,
CCOC(=O)c1c(NC(=O)CN2C(=O)NC3(CCC(CC)CC3)C2=O)sc(C)c1-c1ccc(C)cc1 (stereo not drawn),-1.0,1,-30,-3,2%,
CCOC(=O)CNC(=O)N1CCC(CCC(=O)N(C)Cc2ccccc2)CC1,-4.8,/,/,-6,/,
Cc1ccc(N=Cc2c(O)n(C)c(=O)n(C)c2=O)cc1,1.0,/,/,2,/,
CCNCC(=O)N1c2ccccc2CCc2ccc(NC(C)=O)cc21,2.8,7,-17,-5,-4%,
COc1ccc(-n2cnc3c(sc4nccc(N(C)C)c43)c2=O)cc1,2.1,2,-10,-8,10%,
Nc1nnc(P(c2ccccc2)c2ccccc2)s1,2.8,/,/,1,4%,
Cc1c(C(=O)N/N=C/c2ccoc2)cccc1[N+](=O)[O-],-1.8,/,/,-4,/,
O=C(Oc1ccc(Cl)c2cccnc12)C12CC3CC(CC(C3)C1)C2,0.1,7,-20,100,4.5µM*,
O=C(O)CCCC(=O)NCCc1ccncc1,/,6,-18,-9,-7%,
Cc1ccc(S(=O)(=O)N2CCOCC2)cc1C(=O)N1CC(C)OC(C)C1 (stereo not drawn),-0.7,/,/,-8,/,
COc1c(Br)cc([N+](=O)[O-])c(OC)c1C(=O)NC(=O)Nc1nc(C)cc(C)n1,-1.5,/,/,-12,17%,
Cc1ccc2c(c1)COc1c3ccc(C(=O)N[C@@H](CO)C(C)C)cc3nn1-2,-0.4,/,/,53,6%,
CN(c1ccccc1)S(=O)(=O)c1ccc(C(=O)OCC(=O)NC(N)=O)cc1,0.8,/,/,-5,-4%,
O=C(C1CCCN(Cc2nc(-c3ccc(Cl)cc3)no2)C1)N1CCOCC1 (stereo not drawn),2.4,13,/,4,4%,
CC1Cc2ccccc2N1C(=O)CSCC(=O)O (stereo not drawn),-1.0,5,-35,5,-5%,
COc1ccc(OC)c2c(C)cc(N3CCCN(C)CC3)nc12,-0.1,0,12,-2,-6%,Arbovirus inh repeat=4
COC(=O)Nc1nc2ccc(Br)cc2s1,-2.7,-6,/,5,0%,
Cc1c([N+](=O)[O-])cc(C(=O)Nc2ccc3ncccc3c2)cc1[N+](=O)[O-],-0.7,/,/,-2,/,
COc1ccc(-n2c(Cc3cccn3C)nnc2SCC(=O)N2CCOCC2)cc1,-0.4,-2,-31,-1,-6%,Arbovirus inh repeat=0
Cc1ccccc1NC(=O)Cn1nc(C)c2ccccc2c1=O,0.6,/,/,-7,/,
CCOC(=O)C1(CCOc2ccccc2)CCN(Cc2cccs2)CC1,0.7,6,/,-6,-1%,
O=C(OCc1cc2ccccc2[nH]c1=O)c1ccccn1,2.0,-1,-32,7,2%,
CCOc1ccc(NC(=O)CN(C)C(=O)Cn2c(=O)oc3ccccc32)cc1OCC,-1.1,/,/,-7,/,
CC(=O)N1CCN(c2ccc(NCc3ccc(F)cc3)cc2)CC1,-3.2,-15,-33,-4,-10%,Arbovirus inh repeat=-10
Cc1ccc(C(C)NC(=O)Cc2cccs2)c(C)c1 (stereo not drawn),-0.5,/,/,-3,/,
NC(=O)c1c(/N=C/c2cccs2)sc2c1CCCC2,-3.2,/,/,5,-12%,
COc1ccc(CC(=O)NNC2=Nc3cccc4cccc2c34)cc1OC,-1.3,/,/,-7,-9%,
CC1(NC(=O)N2CCCCC2)CCS(=O)(=O)C1 (stereo not drawn),1.4,1,3,6,-7%,
CCOC(=O)c1ccc(NC(=S)NCCCN2CCCC2=O)cc1,-0.5,-1,/,-6,-1%,
COc1ccc(C(CNC(=O)C(C)Oc2ccc(Br)cc2)N2CCCC2)cc1 (stereo not drawn),-1.6,/,/,-4,/,
CC(C(=O)NC1CCCc2ccccc21)N1CCN(Cc2ccc3c(c2)OCO3)CC1 (stereo not drawn),0.0,5,-23,2,-16%,
Cc1noc(C)c1S(=O)(=O)N(CC(=O)NCc1ccccc1)c1ccc(C(C)C)cc1,2.2,/,/,-3,/,
O=C(C[n+]1ccccc1)N/N=C/c1c(F)cccc1Cl,-2.2,/,/,1,/,
CC(=O)c1c(C)oc2ccc(N(C(=O)C3CCCCC3)S(=O)(=O)c3cc([N+](=O)[O-])ccc3C)cc12,3.4,18,-19,9,5%,
CCOc1ccccc1-n1c(SCC(=O)NCc2ccco2)nnc1-c1ccncc1,4.7,2,-31,-6,-3%,
CC1Oc2ccccc2N(CC(=O)c2ccccc2)C1=O (stereo not drawn),0.9,5,-41,18,-2%,
N#CC1=C(N)Oc2n[nH]c(-c3cccs3)c2C1C1CCCCC1 (stereo not drawn),19,-46,-7,-7,-12%,
COc1ccc(S(=O)(=O)N(C)CC(=O)N2CCOCC2)cc1Cl,-4.6,1,-12,-8,1%,
O=C1[C@@H]2C(c3cccnc3)=NO[C@@H]2C(=O)N1c1ccc2ccccc2c1,/,/,/,-11,8%,
N#C/C(=C(/O)c1ccc([N+](=O)[O-])s1)c1nc2ccccc2[nH]1,4.1,/,/,-6,4%,
Cc1cc(C)n2nc(SCc3nc4ccccc4[nH]3)nc2n1,2.3,3,-26,-2,-5%,Arbovirus inh repeat=-2
O=C(CCc1ccccc1)Nc1cc2c3c(c1)CCC(=O)N3CCC2,1.4,/,/,-13,/,
COc1cc(CO)c(Br)cc1OCC(N)=O,-2.1,22,/,-8,-4%,
COc1cc(/C=N/n2c(-c3cc(C)[nH]n3)n[nH]c2=S)cc(OC)c1O,-2.9,/,/,0,-4%,
CCOC(=O)NNc1cc(C(F)(F)F)ccn1,-0.4,/,/,-7,10%,
COCc1cc(C(C)=O)ccc1OC,-2.7,1,-30,-2,-11%,
O=C1ON=C(c2ccc(Cl)cc2)/C1=C/c1ccc(O)cc1,4.4,-27,/,1,1%,
CCCSc1nc(=O)n2cccc(C)c2n1,/,11,-36,-4,6%,

# Some of these compounds in order of length of the SMILES, low to high.
SMILES,RecA splice inh,Arbovirus inh,YopH inh,Mtb bLac sens,Mtb growth,others
COCc1cc(C(C)=O)ccc1OC,-2.7,1,-30,-2,-11%,
CCCSc1nc(=O)n2cccc(C)c2n1,/,11,-36,-4,6%,
COc1cc(CO)c(Br)cc1OCC(N)=O,-2.1,22,/,-8,-4%,
COc1ccc(S(=O)(=O)N(C)CC(=O)N2CCOCC2)cc1Cl,-4.6,1,-12,-8,1%,

# (listing goes on)
SMILES,RecA splice inh,Arbovirus inh,YopH inh,Mtb bLac sens,Mtb growth,others
O=C1/C(=C/c2ccccc2)Oc2cc(OC(=O)N3CCOCC3)ccc21,-1.0,10,-25,3,2%,
COc1ccc(N(C(=O)c2ccncc2)S(=O)(=O)c2ccc(OC)c(OC)c2)cc1,7.3,/,/,?,/,
COc1ccc(N2CCN(C(=O)c3ccc(C)c(Cl)c3)CC2)cc1,1.8,5,9,15,-4%,
Cc1cc(C)n(C(=O)c2cccc([N+](=O)[O-])c2)n1,1.3,/,/,-4,/,
Clc1cccc(CSC2=NCCCN2)c1,0.3,-1,-30,0,-8%,
CC(C)CC[n+]1ccn(C2=C([O-])c3ccccc3C(=O)/C2=N\S(=O)(=O)c2ccccc2)c1,12,-11,2,0,5%,
Cc1cc(C(=O)O)c(CCCN)s1,1.2,5,-41,4,3%,
CCc1ccccc1OCC(=O)Nc1nc(-c2cccnc2)cs1,3.5,-26,/,86,?,
COc1cc(C#N)ccc1OCC(=O)NCc1cccs1,-0.3,0,/,3,4%,
COc1ccc(C(=O)N2CC(c3ccc(Cl)cc3)CC2=O)cc1 (stereo not drawn),2.3,/,/,-3,/,
COc1ccc(Nc2ncc(C(=O)N3CCN(c4ccccc4OC)CC3)c3ccccc23)cc1,4.6,-6,13,89,9%,
COc1cc(C(=O)Nc2cc(C)cc(C)c2)c(-n2cnnn2)cc1OC,-0.1,-1,/,1,6%,
O=C(/C=C/c1ccccc1)N1CCN(c2ccc([N+](=O)[O-])c(N3CCOCC3)c2)CC1,-1.1,4,4,86,9%,
Cn1c(=O)cc(SCC(=O)NCC2CCCO2)c2ccccc21 (stereo not drawn),-2.1,2,-41,12,-11%,
CCCC(=O)OCC(=O)Nc1ccc(N=Nc2ccccc2)cc1,/,0,-27,0,6%,
COc1ccc(CC(=O)NCC2CCCN(Cc3ccccc3Cl)C2)cc1 (stereo not drawn),-1.9,/,/,-5,/,
O=C(NCc1cccnc1)Nc1cccc([N+](=O)[O-])c1,3.5,/,/,-2,/,
O=C(N/N=C/c1ccccc1F)c1cc2c(ccc3ccccc32)o1,-1.1,/,/,-11,/,
CC(=O)c1c(C)[nH]c(C(=O)Nc2ccc(Cl)c(S(=O)(=O)N3CCOCC3)c2)c1C,2.7,-18,-26,3,4%,
O=C(N[C@@H](Cc1ccccc1)C(=O)N[C@@H](Cc1ccccc1)C(=O)O)OCc1ccccc1,-2.3,/,/,-9,/,
COc1ccc(CCNC(=O)Cn2c(=O)n(-c3ccc(F)cc3)c(=O)c3sccc32)cc1OC,-0.9,13,/,/,-12%,
O=C(CO/N=C/c1ccccc1)N1c2ccccc2Oc2ccccc21,17,-13,-1,-5,13%,
